Bioassay records from PubChem BioAssay.
TRPML1 blocker: inhibitors of human TRPML1 channel. Q9GZU1. TRPML1-inducible cells, Ca2+ dye fluorescence, FDSS; active compounds read low; inhibition of EC80 agonist-evoked calcium signal. activity change, negative = inhibition, % (concentration not given with the values). hit rate 0.02% among 390,000. AID 624415; in the data active means activity change below about -50%; inconclusive means about -30% to -50%; inactive means above about -30%;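 note: stimulus is agonist 54-4 at its EC80 concentration; % is set by controls: 0 for no effect and ±100 for the full control effect; the text of the record puts the active cut at -80%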
Target sequence (Q9GZU1 whole entry, looked up): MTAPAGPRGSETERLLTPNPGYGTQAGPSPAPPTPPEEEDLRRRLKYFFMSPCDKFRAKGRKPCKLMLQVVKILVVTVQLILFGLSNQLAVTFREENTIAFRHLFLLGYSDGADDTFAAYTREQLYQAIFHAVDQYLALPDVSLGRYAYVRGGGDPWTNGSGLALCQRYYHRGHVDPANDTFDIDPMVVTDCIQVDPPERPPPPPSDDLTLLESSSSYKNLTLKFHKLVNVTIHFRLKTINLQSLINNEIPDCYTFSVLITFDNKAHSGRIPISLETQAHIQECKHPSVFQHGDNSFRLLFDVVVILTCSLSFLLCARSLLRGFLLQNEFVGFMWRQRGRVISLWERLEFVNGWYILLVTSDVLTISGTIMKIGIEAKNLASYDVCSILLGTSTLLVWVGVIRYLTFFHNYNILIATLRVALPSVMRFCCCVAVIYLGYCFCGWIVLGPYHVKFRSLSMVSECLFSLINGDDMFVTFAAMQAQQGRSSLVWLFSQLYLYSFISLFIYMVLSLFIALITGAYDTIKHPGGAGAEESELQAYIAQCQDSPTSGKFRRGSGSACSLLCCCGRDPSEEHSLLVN
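Calcium fluorescence in TRPML1-DL cells induced overnight with Tet: a 110 s read after compound pin addition, then a 110 s antagonist read after challenge with 54-4 at 4 uM final (EC80).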
Six1-Eya2 inh: blocks human Six1 binding to Eya2; Q15475+O00167; activity change, % (no concentration beside the values); AlphaScreen GST-Six1/His-Eya2 binding, biochemical; active compounds read low; control for the full effect not named in the record; hit rate 0.56% among 360,000; in the data active = activity change below about -65%; inconclusive = about -30% to -65%; inactive = above about -30%; note: % is set by controls: 0 for no effect and ±100 for the full control effect
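Compounds are tested against tagged Six1 and Eya2 proteins bridged by glutathione donor and nickel acceptor beads; after a one-hour incubation at 37 °C without light, AlphaScreen emission is recorded.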
CtBP-E1A inh: blocks the CtBP interaction with E1A | AlphaScreen GST-E1A/His-CtBP binding, 1536-well; active compounds read low; control for the full effect not named in the record | activity change, % (test concentration not listed) | hit rate 0.49% among 340,000; in the data active means activity change below about -65%; inconclusive means about -30% to -65%; inactive means above about -30%; note: % is set by controls: 0 for no effect and ±100 for the full control effect
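Protein mix (5X: 125 nM each GST-E1A, His-CtBP) was incubated with pinned compound 2 h at 37 deg C in dark, in 50 mM Tris pH 8.0 buffer with 300 mM NaCl. Glutathione donor and nickel acceptor beads followed; AlphaScreen signal read after 1 h.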
TRPV1 potentiator: potentiators of human vanilloid receptor 1 (TRPV1). TRPV1-expressing cells, Fluo-8 calcium influx, capsaicin EC20 potentiation; host cell line not named in the record; control for the full effect not named in the record. potentiation, % at 8.33 µM. hit rate 0.02% among 320,000. AID 540277; active means potentiation above 80%; inconclusive means 30% to 80%; inactive means below 30%; note: 0% is about no effect
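TRPV1-expressing cells were cultured overnight at 35.5C and loaded with Fluo-8 calcium dye for 40 to 90 min at room temperature. After a 10 s baseline, compound was added and calcium influx was read kinetically for 3 min (ex 480/em 520 nm).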
TRPML1 agonist: activates the human TRPML1 channel; Q9GZU1; TRPML1-expressing cells, Ca2+ dye fluorescence, FDSS; host cell line not named in the record; reference of the full effect not given here; activation, % (test concentration not listed); hit rate 0.12% among 410,000; in the data active = activation above about 50%; inconclusive = about 30% to 50%; inactive = below about 30%; note: 0% is about no effect; the text of the record puts the active cut at 80%
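Tet-induced TRPML1-DL cells, 1,500 per well, cultured overnight, were loaded with a no-wash Ca2+ dye for 45–90 min. Calcium fluorescence was recorded on the FDSS for 110 s after compound addition, before the EC80 agonist (4 uM 54-4) was added.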
D2 potentiator: human D2 receptor positive allosteric modulation; hit rate 0.23% among 360,000; potentiation, % (concentration not given with the values); P14416; DiscoveRx D2 beta-arrestin cells, luminescence, 90 min; 100% = 57 uM dopamine signal; active = potentiation of 50% or more; inconclusive = 30% to 50%; inactive = 30% or less;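 note: compound concentration not given in the record; tested on top of an EC20 dose of dopamine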
Target sequence (P14416 whole entry, looked up): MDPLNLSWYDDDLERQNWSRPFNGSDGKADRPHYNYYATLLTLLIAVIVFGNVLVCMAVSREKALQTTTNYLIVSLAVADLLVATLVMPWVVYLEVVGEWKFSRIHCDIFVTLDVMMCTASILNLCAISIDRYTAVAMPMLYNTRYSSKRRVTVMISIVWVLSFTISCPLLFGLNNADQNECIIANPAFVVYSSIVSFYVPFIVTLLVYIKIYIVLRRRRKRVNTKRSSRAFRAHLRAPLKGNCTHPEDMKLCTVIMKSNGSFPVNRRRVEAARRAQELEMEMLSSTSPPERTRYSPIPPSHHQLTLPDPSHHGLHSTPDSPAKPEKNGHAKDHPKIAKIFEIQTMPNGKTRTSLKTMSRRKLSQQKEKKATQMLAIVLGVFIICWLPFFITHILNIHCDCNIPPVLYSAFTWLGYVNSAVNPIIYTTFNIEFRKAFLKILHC
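D2 cells co-treated with compound plus 50 nM dopamine (EC20) for 90 min at 37 deg C to detect potentiation. Beta-arrestin recruitment was read as enzyme-fragment luminescence after 1 h at ambient temperature. Full response was set by 57 uM dopamine.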
Starred values were filed as active, the others as inactive; ? = inconclusive; . = not tested or not shown. Not all compounds are listed. The share of hits here may be higher or lower than overall.

1	CCC[N+]12CCC(CC1)C(C(O)(c1ccccc1)c1ccccc1)C2 (stereo not drawn)
2	CCn1cc(C(=O)N2CCC3(CC2)OCCO3)c(=O)c2cc(S(=O)(=O)N3CCCC3)ccc21
3	COc1ccc(C2=NCC(=S)Nc3ccc(Cl)cc32)cc1OC
4	O=Cc1cn(Cc2c(F)cccc2Cl)nc1-c1ccccc1
5	CC(=O)C1CCC2C3CCC4CC(O)CCC4(C)C3C(O)CC12C (stereo not drawn)
6	CCOC(C(=O)OCC(O)CN(CC)CC)(c1ccccc1)c1ccccc1 (stereo not drawn)
7	O=Cc1c(C(=O)O)n(Cc2ccccc2F)c2ccccc12
8	C=C1C(O)[C@@H]2O[C@]3(CC[C@H](/C=C/C(C)[C@@H]4CC(C)=CC5(O[C@H](C[C@@](C)(O)C(=O)O)CCC5O)O4)O3)CC[C@H]2O[C@@H]1C(O)CC(C)[C@H]1OC2(CCCCO2)CCC1C (stereo partly drawn)
9	Cn1c(O)c(/C=C2\C=c3ccccc3=NC2=O)c(=O)n(C)c1=O
10	COc1cccc(C2C([N+](=O)[O-])=C(N)Oc3c2c(=O)oc2ccccc32)c1 (stereo not drawn)

assay / entry,1,2,3,4,5,6,7,8,9,10
TRPML1 blocker,27.6,3.4,26.7,21.4,1.1,-2.5,-10.2,6.7,?,-4.2
Six1-Eya2 inh,4.2,6.4,0.6,-7.8,3.1,8.5,5.8,1.5,-1.1,1.5
CtBP-E1A inh,8.5,2.0,7.3,22.0,2.4,-0.2,0.0,-11.0,2.9,3.3
TRPV1 potentiator,1.2,-8.9,.,.,.,-0.8,-1.4,.,-3.0,7.1
TRPML1 agonist,1.4,0.3,2.1,0.2,0.7,-1.1,0.5,3.4,1.6,0.4
D2 potentiator,-11.1,-4.1,-0.5,-5.6,-5.8,-8.4,6.2,-21.7,-3.6,11.7

Some of these compounds in order of length of the SMILES, low to high:
4	O=Cc1cn(Cc2c(F)cccc2Cl)nc1-c1ccccc1
7	O=Cc1c(C(=O)O)n(Cc2ccccc2F)c2ccccc12
3	COc1ccc(C2=NCC(=S)Nc3ccc(Cl)cc32)cc1OC
5	CC(=O)C1CCC2C3CCC4CC(O)CCC4(C)C3C(O)CC12C (stereo not drawn)
6	CCOC(C(=O)OCC(O)CN(CC)CC)(c1ccccc1)c1ccccc1 (stereo not drawn)
1	CCC[N+]12CCC(CC1)C(C(O)(c1ccccc1)c1ccccc1)C2 (stereo not drawn)
9	Cn1c(O)c(/C=C2\C=c3ccccc3=NC2=O)c(=O)n(C)c1=O
2	CCn1cc(C(=O)N2CCC3(CC2)OCCO3)c(=O)c2cc(S(=O)(=O)N3CCCC3)ccc21

assay / entry,4,7,3,5,6,1,9,2
TRPML1 blocker,21.4,-10.2,26.7,1.1,-2.5,27.6,?,3.4
Six1-Eya2 inh,-7.8,5.8,0.6,3.1,8.5,4.2,-1.1,6.4
CtBP-E1A inh,22.0,0.0,7.3,2.4,-0.2,8.5,2.9,2.0
TRPV1 potentiator,.,-1.4,.,.,-0.8,1.2,-3.0,-8.9
TRPML1 agonist,0.2,0.5,2.1,0.7,-1.1,1.4,1.6,0.3
D2 potentiator,-5.6,6.2,-0.5,-5.8,-8.4,-11.1,-3.6,-4.1

Additional entries follow.
11	CCOP(=O)(OCC)C(NC(=O)c1ccc(Cl)cc1)=C(Cl)Cl
12	COCCNC(=O)N1[C@H]2CC[C@@H]1C(C(=O)OC)=C(c1ccc(OC(F)(F)F)cc1)C2
13	COc1ccc(C(=O)N2CCOCC2)cc1S(=O)(=O)N1CCC(C)CC1
14	CC1=CC(O)C(O)C2(C)C1CC1OC(=O)CC3C(C)C(O)C(=O)C2C13CO (stereo not drawn)
15	O=S(=O)(NC1CN2CCC1CC2)c1ccc(Cl)cc1 (stereo not drawn)
16	CN(C)S(=O)(=O)c1cccc(C(=O)N2CCC(C(=O)O)(c3ccccc3)CC2)c1
17	C=CCn1c(O)c(C(C)=Nc2cccc(C(=O)O)c2)c(=O)[nH]c1=O
18	Fc1ccccc1N1CCN(Cc2c(F)cccc2F)CC1
19	CCSP1(=S)N=C(N2CCOCC2)C(C#N)=C2CCCN21 (stereo not drawn)
20	CC(C)CC12CN3CCN(CC(C3)/C1=N/O)C2

assay / entry,11,12,13,14,15,16,17,18,19,20
TRPML1 blocker,6.2,-5.5,-9.7,27.4,5.0,-0.7,17.4,-7.5,-1.5,-7.5
Six1-Eya2 inh,1.6,13.1,-3.2,-5.8,7.1,-0.9,1.9,2.0,-0.1,2.5
CtBP-E1A inh,-4.4,-8.8,-4.2,1.4,-0.1,-2.5,4.2,2.9,3.0,6.9
TRPV1 potentiator,-1.0,8.4,-2.2,.,0.5,4.0,6.3,-1.1,-5.3,16.8
TRPML1 agonist,-0.3,-0.1,-0.3,0.5,-0.7,0.0,-0.1,1.5,-0.5,-0.7
D2 potentiator,-14.8,-3.9,-1.5,-18.1,-6.2,-7.8,-8.7,-9.7,11.0,-2.3

21	N#Cc1ccccc1OCC(=O)N1CCN(CC(=O)Nc2ccc(F)cc2)CC1
22	CN(C)C1=NP(N(C)C)(N(C)C)=NC(c2ccccc2)=N1
23	Cc1nccn1Cc1ccc(Cl)nc1
24	C[C@]12CCC(=O)C=C1C=CC1C2CC[C@]2(C)C(=O)CCC12 (stereo partly drawn)
25	COc1ccc(NC(=O)c2cn(CCC#N)nc2-c2cccc(Br)c2)cc1
26	COc1ccc(C2SCC(=O)Nc3c2c(C)nn3-c2ccccc2)cc1 (stereo not drawn)
27	CN1CCN(c2nc([N+](=O)[O-])nn2C)CC1
28	CC(C)C(NC(=O)C(C(C)C)N(C)C)C(=O)N(C)C(C(=O)N1CCCC1C(=O)N1CCCC1C(=O)NCc1ccccc1)C(C)C (stereo not drawn)
29	CN1CC2CN(Cc3ccccc3)S(=O)(=O)C2C1 (stereo not drawn)
30	CCOC(=O)C1(CCc2ccccc2)CCN(Cc2cccc3c2OCO3)CC1

assay / entry,21,22,23,24,25,26,27,28,29,30
TRPML1 blocker,-2.6,-10.6,-3.5,-3.3,-0.6,6.9,41.8,8.2,.,4.4
Six1-Eya2 inh,-2.8,0.3,-1.8,11.5,0.4,-13.7,1.3,23.7,1.1,-13.4
CtBP-E1A inh,-0.2,1.4,0.0,-2.7,.,-0.7,4.1,0.0,11.5,-28.4
TRPV1 potentiator,15.0,2.1,-4.2,.,11.8,10.4,-5.7,.,.,-15.2
TRPML1 agonist,-0.9,3.3,-0.2,-0.2,-0.9,1.9,0.8,0.4,-0.1,2.5
D2 potentiator,-18.9,-9.1,1.3,-13.2,-0.9,-17.2,1.2,-13.3,-6.9,-8.0

31	Cc1ccccc1C(=O)N1Cc2ccccc2-n2nncc2C1
32	COC(=O)C(O)(c1ccc(N(C)C(=O)c2ccc(Cl)c(Cl)c2)cc1)C(F)(F)F (stereo not drawn)
33	O=c1[nH]c(O)c(/C=C2/C=CC(c3cc(Cl)ccc3Cl)=N2)c(=O)[nH]1
34	C/C(=N\Nc1cccc2ccccc12)c1c(O)n(Cc2ccccc2)c(=O)[nH]c1=O
35	COc1ccc(C(CN(C)C)C2(O)CCCCC2)cc1 (stereo not drawn)
36	O=C1CC(=O)N(c2ccccc2)C(=O)N1
37	CN1Cc2cccnc2N(C)Cc2cc(Cl)ccc21
38	Cn1cc(C=C2C(=O)NC(=O)NC2=O)c2ccccc21
39	CCCCN1C(=O)NC(=O)C2(Cc3c(nc4ccccn4c3=O)N3CCc4ccccc4C32)C1=O (stereo not drawn)
40	OC(c1ccccc1)(c1ccccc1)C1CN2CCC1CC2 (stereo not drawn)

assay / entry,31,32,33,34,35,36,37,38,39,40
TRPML1 blocker,25.2,19.0,-5.2,-6.7,4.5,11.1,22.1,-4.5,21.4,-9.2
Six1-Eya2 inh,1.1,8.0,8.9,10.6,6.3,6.9,-20.4,5.0,-3.3,-2.1
CtBP-E1A inh,2.5,3.3,6.1,0.0,-11.9,-14.8,-4.1,-15.4,0.8,0.9
TRPV1 potentiator,.,-27.9,-7.0,2.9,.,.,12.5,16.3,-12.5,-0.2
TRPML1 agonist,0.5,-0.1,?,-0.3,0.8,0.8,0.6,-0.7,11.1,-0.5
D2 potentiator,-0.2,-7.1,-2.8,.,-7.0,2.5,-14.4,-5.5,-9.2,-24.1

41	CCN(CC)C(=O)Cn1cc(/C=C2\C(=O)NC(=O)N(c3ccccc3F)C2=O)c2ccccc21
42	CCCCCn1c(=O)c(C(=O)NCc2ccncc2)c(O)c2ccccc21
43	CCN1C[C@]2(COC)CC[C@H](OC)[C@@]34C5C[C@H]6C(=O)C5[C@](O)(C[C@H]6OC)[C@@](O)(C(OC)C23)[C@@H]14 (stereo partly drawn)
44	C=CCn1c(O)c(C(CC)=Nc2ccc(NC(C)=O)cc2)c(=O)[nH]c1=O
45	CC(=O)O/C(=C1\CC2C3CC=C4CC(OC(C)=O)CCC4(C)C3CCC2(C)C1=O)C(F)(F)F (stereo not drawn)
46	CC(=O)C1C(N2CC2)CC2C3CC=C4CC(O)CCC4(C)C3CCC21C (stereo not drawn)
47	O=C1NCN(c2ccccc2)C12CCN(C(c1ccccc1)c1nnnn1Cc1ccccc1)CC2 (stereo not drawn)
48	C=CCn1c(O)c(C=NCCN2CCOCC2)c(=O)[nH]c1=S
49	COc1ccc(C(=O)CC(c2ccc(OC)c(OC)c2)c2c(O)c3ccccc3oc2=O)cc1OC (stereo not drawn)
50	CCCCc1nc2ccccc2c(=O)n1-c1ccc(Cl)cc1[N+](=O)[O-]
51	Cc1cc(-c2ccc(N)c(C)c2)ccc1N
52	COc1ccc(N=Cc2c(O)n(C)c(=O)[nH]c2=O)cc1
53	COc1cc(OC)cc(C2(C#N)CCN(C)CC2)c1

assay / entry,41,42,43,44,45,46,47,48,49,50,51,52,53
TRPML1 blocker,3.1,-6.4,.,3.1,-16.5,-14.1,.,4.8,-0.8,10.4,-6.4,-26.3,-11.6
Six1-Eya2 inh,-10.7,7.6,-0.1,5.0,4.7,2.8,-14.8,2.7,8.7,-2.3,0.0,-6.3,6.7
CtBP-E1A inh,-4.0,-0.3,-20.7,6.1,4.3,-17.6,-13.8,7.3,-18.5,-2.4,?,10.1,.
TRPV1 potentiator,?,4.6,.,24.3,.,.,.,3.1,.,-0.7,.,1.0,-10.3
TRPML1 agonist,-0.8,0.4,.,-0.4,10.4,0.9,-0.8,3.8,0.0,2.3,-0.5,0.2,-0.7
D2 potentiator,-5.1,9.6,-24.0,-10.9,-36.7,-8.4,-3.0,-0.7,-17.5,2.0,-8.0,-0.6,-17.5
